Screens deposited in PubChem BioAssay by several laboratories.
UCH37 DUB inh: inhibitors of human UCH37 deubiquitinase, primary screen, biochemical, Ub-AMC cleavage, fluorescence; 0.33% of 330,000 active; purified proteasome/UCH37; inhibition, % (concentration not given with the values); AID 588478, 2011;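 active = mean of two replicates above 20%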;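 note: 0% = compound-free wells with enzyme and 100% = wells lacking proteasome; stock transfer was 100 nL into about 20 µL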
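Test system – human UCH37 enzyme supplied as purified proteasome complex · Incubation – 30 min preincubation with enzyme, 25 min cleavage at room temperature · Detection – AMC fluorescence from Ub-AMC cleavage, excitation 355 nm, emission 460 nm · Benchmarks – no-proteasome wells (full inhibition) and compound-free wells (no inhibition)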
FGF22 binding: binders of human FGF22 protein, primary screen, FGF22 synaptogenesis inhibitor project, biophysical, thermal shift, single point; recombinant FGF22 thermal shift, SYPRO orange fluorescence; percent of sucrose octasulfate shift, DMSO zero; AID 651658, 2012; 1.5% of 340,000 active; Fibroblast growth factor 22 (Homo sapiens), Q9HCT0; calls only at 9.99 µM;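 active = melting point raised past a set limit in the mean and every replicate; three in four hits are not shown here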
Target sequence (Q9HCT0 whole entry, looked up): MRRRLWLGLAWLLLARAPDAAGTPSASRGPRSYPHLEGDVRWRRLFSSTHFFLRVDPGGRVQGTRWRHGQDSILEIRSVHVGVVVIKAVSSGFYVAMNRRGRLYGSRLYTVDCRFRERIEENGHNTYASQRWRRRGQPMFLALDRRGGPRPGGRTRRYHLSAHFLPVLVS
LANA-H2B inh: blockers of LANA interaction with H2A/H2B – biochemical, FP readout, HTS, primary screen; Protein LANA1 (Human herpesvirus 8 type P (isolate GK18)), Q9QR71; cell-free LANA-H2A/H2B peptide, fluorescence polarization; inhibition, % (concentration not given with the values); 0.6% of 320,000 active; AID 2629, 2010; in the data active = inhibition mostly above about 10%, no sharp cut-off; inactive = mostly below about 6.7%;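 note: stock transfer was 7.5 nL into about 10 µL; 0% = median of vehicle wells and 100% = median of positive control wells; one replicate is shown; the record names a cut of 25% in any replicate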
Ecoli growth: E. coli growth inhibition, primary screen, OD600. Escherichia coli growth, 23 h; hits give low values. OD600 absorbance (test concentration not listed). 0.21% of 330,000 active;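 active = OD600 absorbance below the run mean of sample wells minus 3.6 SD, in any replicate, cut at about 0.56 in these data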;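 note: stock transfer was 300 nL into about 60 µL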
ALR H2O2 inh: inhibitors of human ALR sulfhydryl oxidase, primary screen, biochemical, H2O2 detection, HRP-luminol luminescence, single point | purified ALR, DTT oxidation | inhibition, % (no concentration beside the values) | AID 485317, 2010 | 3.8% of 290,000 active;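 active = mean and each replicate at 75% or more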;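 note: stock transfer was 7.5 nL into about 7.5 µL; 0% = neutral wells and 100% = wells with inactivated enzyme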
HNF4A DNA FP: change in binding of human HNF4A to DNA, primary screen, biochemical, fluorescence polarization, FITC-DNA; 1 h; 0.3% of 360,000 active; Hepatocyte nuclear factor 4-alpha (Homo sapiens), P41235; activity change, % at 10 µM; AID 1224865, 2016; in the data active = activity change above about 30%, passing the limit was not always enough;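 note: controls were the assay level and a saturating level of protein; the project sought stronger binding though the title names inhibitors; some compounds called inactive have numbers as strong as hits; positive values seem to mean higher polarization but the record does not say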
Target sequence (P41235 whole entry, looked up): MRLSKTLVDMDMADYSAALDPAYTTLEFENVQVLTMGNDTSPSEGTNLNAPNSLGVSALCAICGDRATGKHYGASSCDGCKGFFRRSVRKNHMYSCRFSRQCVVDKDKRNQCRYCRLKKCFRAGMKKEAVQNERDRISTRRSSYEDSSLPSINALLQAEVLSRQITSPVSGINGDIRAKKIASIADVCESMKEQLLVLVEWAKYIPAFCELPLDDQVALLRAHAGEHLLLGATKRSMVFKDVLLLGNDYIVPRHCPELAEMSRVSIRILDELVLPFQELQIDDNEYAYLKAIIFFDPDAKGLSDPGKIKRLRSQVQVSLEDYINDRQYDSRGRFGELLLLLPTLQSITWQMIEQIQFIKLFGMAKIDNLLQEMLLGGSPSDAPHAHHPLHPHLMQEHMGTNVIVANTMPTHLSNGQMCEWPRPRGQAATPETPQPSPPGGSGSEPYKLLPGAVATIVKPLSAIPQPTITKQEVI
Beta2AR agonist: beta2AR agonists driving receptor internalization, primary screen, cell-based, FAP fluorogen, flow cytometry | Beta-2 adrenergic receptor (Homo sapiens), P07550 | Am2.2-beta2AR cells; reference of the scale not given here | response, % (test concentration not listed) | 0.43% of 340,000 active | AID 504454, 2011;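 active = response above a set limit, near 3 SD of response in nonfluorescent compounds, cut at about 42% in these data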;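 note: stock transfer was 100 nL into about 11 µL; a reference agonist was the positive control; negative values mostly stem from fluorescent compounds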
Target sequence (P07550 whole entry, looked up): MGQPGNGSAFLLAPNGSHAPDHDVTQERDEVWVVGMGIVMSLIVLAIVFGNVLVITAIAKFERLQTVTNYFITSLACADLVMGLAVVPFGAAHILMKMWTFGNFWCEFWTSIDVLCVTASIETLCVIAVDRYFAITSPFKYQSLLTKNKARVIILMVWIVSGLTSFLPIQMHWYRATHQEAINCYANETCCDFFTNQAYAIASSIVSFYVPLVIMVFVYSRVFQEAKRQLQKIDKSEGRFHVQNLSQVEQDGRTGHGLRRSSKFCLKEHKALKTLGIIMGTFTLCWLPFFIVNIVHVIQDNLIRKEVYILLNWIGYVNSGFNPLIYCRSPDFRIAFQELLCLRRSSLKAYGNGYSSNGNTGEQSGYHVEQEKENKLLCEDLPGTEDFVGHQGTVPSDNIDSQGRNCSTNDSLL
Starred values were filed as active, the others as inactive; i = inactive; / = no result given; + = active, no number.

Molecule	UCH37 DUB inh	FGF22 binding	LANA-H2B inh	Ecoli growth	ALR H2O2 inh	HNF4A DNA FP	Beta2AR agonist
O=C(Nc1cccc(C(=O)N2CCCCC2)c1)c1ccccc1Br	4.9	i	-1.5	0.719	-2.2	6.2	0.4
O=C(/C=C\c1ccco1)Nc1cc([N+](=O)[O-])ccc1F	4.0	/	-1.9	0.741	-3.6	-3.5	8.1
Cc1ccc(-c2c[n+](CC(=O)OCc3ccccc3)c3n2CCC3)cc1	4.3	i	1.6	0.693	/	-1.9	-0.6
CC(C)CNC(=O)/C=C/C(=O)O	-1.3	i	-12.1	0.688	/	1.8	0.2
Cc1cc(OCC(=O)Nc2nnc(C3CC3)s2)ccc1C(C)C	-1.1	i	/	0.71	/	0.7	3.7
Cc1ccc(NC(=O)c2ccc(S(=O)(=O)NCc3ccco3)cc2)nc1	-1.1	i	0.2	0.684	1.7	-1.8	-13.1
O=C(Nc1ccc2c(c1)OCO2)c1cnn2cccnc12	3.6	+	2.1	0.619	-8.5	1.4	1.6
Cc1ccc(Cl)cc1N1CCN(C(=O)Cn2ccc3ccccc3c2=O)CC1	1.3	/	0.3	0.703	3.2	3.9	-13.6
O=C(Nc1ccc(Oc2ccc(Cl)cc2)cc1)c1ncn[nH]1	0.1	/	1.2	0.702	15.4	2.4	-0.4
N#Cc1nc(COc2ccc(-c3ccccc3)cc2)oc1NCCCN1CCOCC1	5.3	/	0.8	/	8.5	0.8	11.9
CC(=O)c1c(C(C)=O)c(C)n(-c2ccc(O)cc2)c1C	2.0	/	-5.1	0.668	-11.4	0.8	-2.8
COc1ccc(-c2csc(NC(=O)c3ccco3)n2)cc1	1.8	/	-4.5	0.636	9.7	-2.3	-5.2
O=C1c2ccccc2NC(c2cccc(O)c2)N1Cc1ccco1 (centres undefined)	-251.6	i	-2.1	0.656	5.3	3.9	-8.4
COc1ccc(OC)c(C(=O)c2coc3ccc(OC)cc23)c1	0.5	/	3.8	0.575	3.7	0.1	-5.0
O=C(/C=C/NNC(=O)c1ccccc1)c1ccc([N+](=O)[O-])cc1	5.4	i	-2.4	0.69	41.4	4.7	5.8
COc1ccc(N2CCN(C(=O)c3ccc(Cn4nc(C)c([N+](=O)[O-])c4C)o3)CC2)cc1	1.5	i	/	0.68	/	-2.1	5.8
COc1cc(C(=O)NC2CC(C)(C)NC(C)(C)C2)cc(OC)c1OC	5.1	i	2.2	0.706	-7.0	-1.8	4.0
CC(C)(C)c1ccc(-n2nc(C#N)c(Cl)cc2=O)cc1	1.8	i	/	0.665	/	-1.8	52.3*
O=[N+]([O-])c1ccc(N2CCN(c3ccccc3)CC2)nc1	3.6	i	4.4	0.582	/	0.8	4.9
O=C(CSc1nc2ccccc2c(=O)n1CCCC(=O)N1CCCC1)NCc1ccco1	1.4	/	-0.4	0.662	-7.1	-0.9	-2.2
COc1ccc(CCNC(=O)Cc2nn(C)c(=O)c3ccccc23)cc1OC	2.9	/	0.6	0.708	-5.7	1.9	-4.6
CCCCN1c2cc(C)c(O)cc2C(C(=O)OCC)C1C (centres undefined)	4.6	/	-1.4	0.759	0.0	/	/
CCOc1ccc2nc(NC(=O)CN3CCN(C)CC3)sc2c1	1.1	/	3.4	0.711	-8.2	0.0	5.5
Cc1ccc(S(=O)(=O)N2CCOC23CCN(C(=O)C(=O)NCCC(C)C)CC3)cc1	3.2	i	5.3	0.645	-7.2	1.1	-2.6
CCOC(=O)N1CCN(C(=O)C2CC(c3ccc(F)cc3)=NO2)CC1 (centres undefined)	6.0	i	4.1	0.755	/	-1.9	-1.2
CCCCc1nnc(NC(=O)c2ccc(S(=O)(=O)N3CCOCC3)cc2)s1	4.0	i	0.7	0.723	0.0	0.9	-1.4
Cc1ccc(SCc2cc(=O)n3[nH]c(C)nc3n2)cc1	3.5	/	-5.5	0.788	0.7	3.1	3.5
COc1ccc(NC(=O)Nc2cccc3c2O[C@H](CN(C)C(=O)NC(C)C)[C@@H](C)CN([C@H](C)CO)C3=O)cc1	0.8	i	-0.4	/	-0.4	-0.5	0.6
CCOc1ncccc1C(=O)N1CCN(S(=O)(=O)c2ccc3ccccc3c2)CC1	1.1	i	-6.0	0.697	-29.2	0.8	-9.7
O=C(Nc1nc(-c2cccs2)c(-c2cccs2)s1)C1(c2ccccc2)CC1	-121.5	i	-3.9	0.708	-13.4	3.8	-1.0
COc1ccc(CNC(=O)CC2C(=O)NCCN2C2Cc3ccccc3C2)cc1 (centres undefined)	2.2	i	2.1	0.689	-16.6	-0.2	-3.0
COc1ccccc1CC(=O)Nc1ccon1	-1.8	i	1.7	0.675	15.9	1.6	-2.4
CN(C)c1ccc(/C=N/OC(=O)Nc2ccccc2)cc1	/	i	-2.4	/	84.3*	-0.6	-0.1
Cc1noc(C)c1CSCC(=O)Nc1cc(Cl)ccc1N1CCCCC1	2.2	i	-3.8	0.654	-5.0	-1.7	4.4
COCCn1nnnc1C(c1ccc2ncccc2c1)N1CCN(c2ccccc2F)CC1 (centres undefined)	6.3	/	3.4	0.69	-11.4	2.4	-11.2
Cc1cc(C)cc(NC(=O)c2ccc(Cn3nc(C)c(Cl)c3C)o2)c1	4.8	/	-6.4	0.657	/	1.4	5.9
O=C1/C(=C/c2cccc(Br)c2)SC(=S)N1CCC(=O)N(CCO)c1ccccc1	2.0	i	-3.9	0.702	-16.7	-2.7	-6.1
O=C(NC(=S)Nc1cccc2ncccc12)c1cccs1	4.5	i	-4.0	0.652	-14.8	-1.2	-9.8
COc1cc(C)nc(-c2csc(C)n2)n1	-4.3	i	20.3*	0.683	/	-11.9	5.4
O=C(NCc1ccc(Cl)cc1)C1CCCN1C(=O)Nc1ccccc1 (centres undefined)	1.9	i	3.1	0.655	-6.3	-1.8	-2.3
O=C(CN(c1cccc([N+](=O)[O-])c1)S(=O)(=O)c1ccccc1)N(Cc1ccccc1)Cc1ccccc1	2.9	/	2.7	0.702	-22.9	-1.3	1.9
COc1ccc(Br)cc1CNc1ccc(S(N)(=O)=O)cc1	2.4	/	-0.9	0.674	-28.5	-1.4	-0.7
CCNC(=S)NNC(=O)c1cccs1	-2.1	/	-1.4	0.71	31.1	1.1	10.5
Cc1ccccc1NC(=O)c1sc(Cl)nc1-c1ccccc1	-5.2	/	-2.0	0.749	4.9	-2.9	-11.8
Cc1ccc2c(CC(=O)NCC3COc4ccccc4O3)coc2c1 (centres undefined)	6.6	/	2.9	0.772	-1.6	0.9	0.9
COc1ccc(NC(=O)Nc2ccc3c(c2)C(=O)N([C@H](C)CO)C[C@H](C)[C@@H](CN(C)C(=O)Nc2ccc(C(F)(F)F)cc2)O3)cc1	2.4	i	-5.2	/	1.9	1.8	-1.9
O=C1COc2ccc(C(=O)COC(=O)c3ccc(S(=O)(=O)C(F)F)cc3)cc2N1	4.7	i	-9.0	0.691	-6.1	-2.4	4.2
CC(=O)Nc1cccc(OC(=O)N2CCOCC2)c1	2.5	/	-2.3	0.737	-5.2	-8.3	2.8
O=C(COC(=O)/C=C/c1ccc(Cl)cc1Cl)Nc1cc(C(F)(F)F)ccc1N1CCOCC1	3.3	i	0.4	0.705	-17.5	-1.1	-3.6
COc1ccc(NC(=O)c2cn(-c3ccccc3)nc2SC)cc1	6.4	i	1.6	0.627	0.1	1.1	-5.8

Remaining list, next part.
Molecule	UCH37 DUB inh	FGF22 binding	LANA-H2B inh	Ecoli growth	ALR H2O2 inh	HNF4A DNA FP	Beta2AR agonist
COc1cc(S(=O)(=O)NCC2OCCc3ccccc32)ccc1-n1cnnn1 (centres undefined)	1.6	/	-1.3	0.697	-2.1	2.6	-9.9
CC1CCCCN1S(=O)(=O)c1ccc(C(=O)Nc2nnc(-c3ccco3)o2)cc1 (centres undefined)	6.2	i	-0.9	0.671	7.4	-2.4	5.9
Cn1cccc1C(C#N)c1ncc(C(F)(F)F)cc1Cl (centres undefined)	3.5	i	0.1	0.708	-2.0	1.5	0.5
CC(C)c1ccc(-c2nc3ccccc3s2)cc1	0.7	i	-4.2	0.675	/	0.5	-3.6
CC(O)CNc1nc2ccccc2n1-c1ncnc2sc3c(c12)CCC3 (centres undefined)	3.0	/	-5.2	0.643	9.7	2.5	-10.5
COc1ccc(OC)c(S(=O)(=O)N2CCCc3ccccc32)c1	-3.6	/	-4.9	0.73	-3.9	-0.9	-1.8
CN(C1CCCC1)C1CCN(C(=S)Nc2cc(F)cc(F)c2)CC1	3.0	i	-0.5	0.659	/	0.2	-1.8
NC(=O)c1sc2nnc(-c3ccccc3)c(-c3ccccc3)c2c1N	4.6	i	0.7	0.658	-2.4	5.6	-9.2
COc1ccc(CN=CC2=C(O)CNC2=O)cc1	3.1	/	0.3	0.76	-12.1	-0.8	-3.6
N#CCCN1CCN(S(=O)(=O)c2ccc(C#N)cc2)CC1	4.5	/	-0.9	0.702	/	-4.2	-6.7
Cc1cc(S(=O)(=O)N2CCN=C2c2ccccc2)ccc1F	1.8	/	4.5	0.718	-42.1	1.8	2.0
CS(=O)(=O)c1ccccc1C(=O)Nc1ccccc1Cc1ccccc1	9.9	i	-0.3	0.681	-1.3	0.0	-11.0
CCCCN(C(=O)C1CC(=O)N(c2ccc(C)cc2)C1)c1c(N)n(CCC)c(=O)[nH]c1=O (centres undefined)	4.7	i	/	0.663	/	-5.9	-9.9
COc1ccc(-c2c(C)nn3c(N4CCC5(CC4)OCCO5)cc(C)nc23)cc1OC	1.6	/	-3.1	0.702	11.5	-2.8	4.1
CCC(=O)c1ccc(OCC(=O)N2CCN(C(=O)c3ccccc3)CC2)cc1	0.6	i	-1.3	0.694	/	2.9	-3.0
CC(C)(C)n1ncc2c(=O)n(CC(=O)NCc3ccccc3)cnc21	2.4	/	2.1	0.687	-12.7	0.0	-9.6
CCN(c1ccccc1)S(=O)(=O)c1cccc(C(=O)N2CCN(S(=O)(=O)c3ccccc3)CC2)c1	4.1	i	3.1	0.688	-4.5	-1.3	11.5
O=C(c1cc(Br)ccc1O)N1CCN(S(=O)(=O)Cc2ccccc2)CC1	0.2	i	/	0.707	0.6	2.5	2.0
COc1cccc(CNC(=O)COc2cc3c(c4oc(=O)cc(C)c24)CCC(C)(C)O3)c1	-311.3	i	-4.4	0.735	/	3.6	1.4
CC(CCNC(=O)c1ccccc1)(CCNC(=O)c1ccccc1)[N+](=O)[O-]	/	i	/	/	/	0.1	-5.1
Cc1ccccc1C(C(=O)NC1CCCCC1)N(C(=O)c1ccccn1)c1cccnc1 (centres undefined)	4.5	i	-0.6	0.697	-2.0	-3.3	3.1
O=C(CSc1ncccn1)N/N=C/c1cccc([N+](=O)[O-])c1	/	/	-3.2	/	-3.2	-2.1	-11.3
O=c1[nH]nc2c3ccccc3cnn12	-2.7	/	3.9	0.751	-10.8	3.2	-5.3
CCOC(=O)c1cccc(NC(=S)NC(=O)c2cccnc2)c1	1.1	i	6.0	0.702	/	-2.2	5.6
O=C1C2CCCN2C(=O)N1CCCCN1CCN(c2cccc(Cl)c2)CC1 (centres undefined)	2.0	/	2.0	0.684	17.8	-2.1	-7.2
CCOC(=O)c1cc2c(C(F)(F)F)cc(-c3ccccc3)nc2o1	-66.2	/	-2.7	0.692	-6.1	2.4	-0.5
COc1cccc(-n2sc3c(c2=S)-c2cc(OC)ccc2NC3(C)C)c1	5.3	/	3.3	0.728	1.0	-2.0	2.6

The list is partial; the hit share may differ from the screen's.
